Assay outcomes deposited in PubChem by ICCB-Longwood Screening Facility, Harvard Medical School.
GIV-Gai inh – inhibitors of GIV peptide binding to Galpha-i3, primary screen, biochemical, fluorescence polarization, FITC-GIV GBA peptide, rat Galphai3; percent of control (FP), % (test concentration not listed); AID 1224905, 2016; 210,000 compounds, 0.42% hits; 90 min; stronger effect = lower value; scaled: aluminum fluoride 0%, vehicle 100%; Guanine nucleotide-binding protein G(i) subunit alpha-3 (Rattus norvegicus), P08753;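 active = replicate mean at 85% of control or lower, very high polarization wells dropped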;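 note: wells of about 15 µL received 100 nL stock; the first replicate is given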
Target sequence (P08753 whole entry, looked up): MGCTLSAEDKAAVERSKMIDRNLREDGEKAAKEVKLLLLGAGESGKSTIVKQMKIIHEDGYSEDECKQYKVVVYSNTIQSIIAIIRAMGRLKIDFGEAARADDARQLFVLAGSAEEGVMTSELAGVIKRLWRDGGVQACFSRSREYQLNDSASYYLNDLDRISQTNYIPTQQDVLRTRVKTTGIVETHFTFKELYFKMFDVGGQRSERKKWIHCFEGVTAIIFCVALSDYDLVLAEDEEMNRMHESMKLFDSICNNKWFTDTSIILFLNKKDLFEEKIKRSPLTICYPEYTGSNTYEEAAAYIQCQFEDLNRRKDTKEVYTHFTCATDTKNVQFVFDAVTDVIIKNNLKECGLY
Sa growth inh – S. aureus growth inhibition at 42 and 30 °C, primary screen, LtaS inhibitor project, RN4220, two temperatures. OD600, 20 h, 42 °C; stronger effect = lower value. relative growth, % (test concentration not listed). 170,000 compounds, 0.53% hits. AID 720641, 2013;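 active = growth at 42 °C up to 50% and 20 or more points under that at 30 °C, or under 10% at both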;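 note: 300 nL library stock went into each well; scaled to the means of positive and negative controls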
HCMV NEC inh – inhibitors of HCMV UL50-UL53 interaction, biochemical, HTRF. AID 1918969, 2023. HCMV UL50-UL53 nuclear egress complex (human cytomegalovirus). normalized percent inhibition. 190,000 compounds, 0.15% hits. inhibition, % (concentration not given with the values);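 active = both replicates at 50% or more, plus weaker picks with an unusually low signal ratio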;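 note: stock transfer was 100 nL into about 20 µL; 0% = negative control wells and 100% = wells with untagged competitor protein; inactives centre near -12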
Sa growth inh second temp – further read-out of Sa growth inh, marked with its call; relative growth, %; measured here: growth at 30 °C;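 optical density after 20 h as mean of two plates; 100% = untreated growth and lower means inhibition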
The depositor's hits bear a star; · = no result given. Rows are unselected, and some 0.8% of all compounds hit somewhere here.

SMILES	GIV-Gai inh	Sa growth inh	Sa growth inh second temp	HCMV NEC inh
O=S(=O)(NCC(c1ccccc1)N1CCOCC1)c1ccc(Cl)cc1 (stereo not drawn)	101	·	·	11
c1csc(-c2nc3nonc3c3nc4ccccc4n23)c1	115	87	63	-30
COc1ccc(/C=N/O)cc1OC1CCCC1	98	96	84	-15
COC(=O)c1cccc(NC(=O)COc2ccccc2)c1	102	103	72	·
O=C(NC1CCCC1)c1c(O)c2cccc3c2n(c1=O)CC3	·	110	84	0
CCn1ccc2cc(S(=O)(=O)N3CCCC(C(=O)N4CCN(c5ncccn5)CC4)C3)ccc21 (stereo not drawn)	106	·	·	-20
Cc1nc2ccccc2n(CC(=O)NC2CCCC2)c1=O	112	·	·	-46
COCC(C)NC(=O)c1ccco1 (stereo not drawn)	·	112	85	-11
COC(=O)c1ccc(-c2nc(O)c3c4ccccc4c(=O)[nH]n23)cc1	·	95	89	-23
COc1nc(C)nc(C)c1Oc1ccc(Cl)cc1Cl	103	83	103	3
O=C(O)/C=C\C(=O)c1ccc(O)cc1	98	·	·	-12
Cc1cccc(-c2nc(Cn3c(=O)cc(-c4ccccc4)c4c(C)nn(C)c43)c(C)o2)c1	106	99	94	·
O=C(O)c1c[nH]c2ccc(S(=O)(=O)N3CCCC3)cc2c1=O	100	114	85	·
COC(=O)Nc1ccc(S(=O)(=O)N2CCCc3cccc(O)c32)cc1	99	100	88	-16
O=C(O)c1ccc(S(=O)(=O)Nc2ccc3oc4c(c3c2)CCCC4)cc1	109	96	91	1
CCOc1cc(C2NC(=O)N(C)C(C)=C2C(=O)OCCc2ccccc2)cc(Br)c1O (stereo not drawn)	95	·	·	-30
O=C1CSC(=Nc2cccc(C(=O)O)c2)N1	110	117	86	-4
O=C(c1cncc(NS(=O)(=O)c2ccc(F)cc2)c1)N1CCN(Cc2ccccc2)CC1	102	·	·	-33
COc1ccc(C2NC(=O)Cc3cc(OC)c(OC)cc32)cc1 (stereo not drawn)	104	106	82	-8
COC(=O)c1c(C)oc2c1cc(NS(=O)(=O)c1c(C)cc(C)cc1C)c1ccccc12	116	93	97	-21
CCOc1ccc(CCNC(=O)c2cc3sc(CC)cc3n2C)cc1OCC	108	103	86	-16
O=C1/C(=C/C2CCCO2)CC/C1=C\C1CCCO1 (stereo not drawn)	·	73	66	-29
O=C(OC1CCOC1=O)c1cccnc1Nc1cccc(C(F)(F)F)c1 (stereo not drawn)	·	88	96	8
CSc1nnc2c(n1)OC1(Nc3ccccc3-2)C(=O)Nc2ccc(Br)cc21 (stereo not drawn)	106	·	·	-28
CN(C(=O)COn1nnc2ccccc21)C1CCCCC1	·	94	84	-20
Next part
SMILES	GIV-Gai inh	Sa growth inh	Sa growth inh second temp	HCMV NEC inh
CC(=O)c1ccc(NC(=O)CSC2=Nc3ccccc3N=C(c3ccc(F)cc3)C2)cc1	105	91	83	·
Cc1cccc(NC(=O)/C(C#N)=C/c2ccc(C)o2)c1	106	100	84	-74
CCOc1ccc(C(=S)N(C)C)cc1	107	106	93	0
COC(=O)C1CC(O)CN1c1nc(-c2ccccc2)nc2ccccc12 (stereo not drawn)	·	90	89	-18
C=Cc1c(C)/c2[n-]/c1=C\c1[n-]c(c(CC)c1C)/C=c1\[n-]c3c(c1C)C(=O)C(C(=O)[O-])C=3c1[n-]c(c(C)c1CCC(=O)[O-])\C=2.[Cu].[Na+].[Na+] (stereo not drawn)	·	82	52	52*
CSc1nc(C)nc(-n2cccc2)c1C#N	102	100	97	-6
CC(C)(C)C(=O)Nc1nsc(-c2ccccc2)n1	104	108	82	-19
COc1ccc2oc(=O)cc(O)c2c1	·	63	73	-9
CC1CC(=O)N(CC(=O)Nc2ccc(F)cc2F)c2ccccc2S1 (stereo not drawn)	104	86	87	-38
C=CCn1c(SCC(=O)N2CC(C)CC(C)C2)nc2ccccc2c1=O (stereo not drawn)	·	107	93	-22
CCc1ccc(OCc2nc(-c3ccncc3)no2)c(Br)c1	103	89	67	-1
NNC(=O)C(Sc1n[nH]c(=O)[nH]c1=O)c1ccccc1 (stereo not drawn)	100	98	86	-27
C=CCn1c(N2CCCC2)nc2c1c(=O)[nH]c(=O)n2C	104	100	104	-22
COc1ccc(C(CC(=O)Nc2cc(OC)cc(OC)c2)n2cccc2)cc1 (stereo not drawn)	99	90	82	·
O=C(O)c1cccc(/C=N/O)c1O	96	75	85	-14
CCN(C(=O)CSc1ncn[nH]1)c1ccccc1	·	101	94	-6
CC1CN(C(=O)N2CCC(C(=O)NCCCc3ccccc3)CC2)c2cc(Cl)ccc2O1 (stereo not drawn)	101	105	83	-6
COc1ccc(C2CC(c3ccccc3)=NN2C(=O)c2ccccc2)cc1 (stereo not drawn)	101	·	·	-5
COc1cc(NC(=O)C(CC(C)C)N2Cc3ccccc3C2=O)cc(OC)c1 (stereo not drawn)	100	127	102	·
Cc1cn(C)c(CC(=O)N2CCN(c3ccccc3F)CC2)c1C(=O)O	103	97	89	·
CC(=O)c1ccc(N2CCN(C(=O)c3cc4cc5cc(C)ccc5nc4s3)CC2)cc1	102	85	89	·
O=S(=O)(c1ccc(Cl)cc1)N1CCN=C1N1CCN(c2ccc(F)cc2)CC1	102	·	·	-28
Nc1nc2nc(N3CCOCC3)[nH]c2c(=O)[nH]1	100	100	101	-3
CCN(CC)OC(=O)c1c(-c2c(Cl)cccc2Cl)noc1C	100	110	93	11
Cc1ccc(NC(=O)N2CCC(CN3CCCC3)CC2)c(C)c1	96	114	91	·

As entered above:
Reading of NNC(=O)C(Sc1n[nH]c(=O)[nH]c1=O)c1ccccc1 (stereo not drawn) in Sa growth inh second temp: 86
Reading of CC(=O)c1ccc(NC(=O)CSC2=Nc3ccccc3N=C(c3ccc(F)cc3)C2)cc1 in Sa growth inh second temp: 83
Reading of C=Cc1c(C)/c2[n-]/c1=C\c1[n-]c(c(CC)c1C)/C=c1\[n-]c3c(c1C)C(=O)C(C(=O)[O-])C=3c1[n-]c(c(C)c1CCC(=O)[O-])\C=2.[Cu].[Na+].[Na+] (stereo not drawn) in Sa growth inh: 82
Reading of CCOc1ccc(C(=S)N(C)C)cc1 in HCMV NEC inh: 0
Reading of C=CCn1c(SCC(=O)N2CC(C)CC(C)C2)nc2ccccc2c1=O (stereo not drawn) in HCMV NEC inh: -22
Reading of COc1ccc(C(CC(=O)Nc2cc(OC)cc(OC)c2)n2cccc2)cc1 (stereo not drawn) in Sa growth inh: 90

4 entries from above, in CSV form:
Structure,GIV-Gai inh,Sa growth inh,Sa growth inh second temp,HCMV NEC inh
C=CCn1c(N2CCCC2)nc2c1c(=O)[nH]c(=O)n2C,104,100,104,-22
COc1ccc(C(CC(=O)Nc2cc(OC)cc(OC)c2)n2cccc2)cc1 (stereo not drawn),99,90,82,·
O=C(O)c1cccc(/C=N/O)c1O,96,75,85,-14
CCN(C(=O)CSc1ncn[nH]1)c1ccccc1,·,101,94,-6

The listing picks up, repeating the three entries before the break.
SMILES	GIV-Gai inh	Sa growth inh	Sa growth inh second temp	HCMV NEC inh
Nc1nc2nc(N3CCOCC3)[nH]c2c(=O)[nH]1	100	100	101	-3
CCN(CC)OC(=O)c1c(-c2c(Cl)cccc2Cl)noc1C	100	110	93	11
Cc1ccc(NC(=O)N2CCC(CN3CCCC3)CC2)c(C)c1	96	114	91	·
CC1(C)Cc2ccccc2C(CSc2nnc3c(n2)[nH]c2ccccc23)=N1	·	79	61	-50
N#Cc1c(N)nc(Sc2ccc(Cl)cc2)c(C#N)c1-c1cccs1	104	93	88	-34
Cc1cccc(-c2cc(N3CCC(C(N)=O)CC3)nc(SCc3ccc(Cl)cc3)n2)c1	106	·	·	-8
COC(=O)C1=CN(C(C)C)C=C(C(=O)OC)C1c1ccc2c(c1)OCO2	96	91	89	-15
O=C1N(Cc2ccccc2)C(c2cccc(F)c2)C1(F)F (stereo not drawn)	·	108	101	-10
O=C(CNC(=O)c1ccccc1)NCC1COc2ccccc2O1 (stereo not drawn)	·	92	92	-13
CCOC(=O)c1ccc(N2C(=O)CC(NC(C)(C)C)C2=O)cc1 (stereo not drawn)	101	93	108	-15
Cc1nc2ccn(Cc3cccnc3)c(=O)c2cc1C(=O)N1CCN(c2ccc(F)cc2)CC1	97	74	93	·
COC(=O)C1=C(C)N(c2ccc(C)cc2)/C(=C/c2ccc(OC)cc2)C1=O	91	128	75	·
Cc1cc(NS(=O)(=O)c2cc3c(cc2C)NC(=O)CO3)ccc1Br	107	·	·	-14
O=c1oc(-c2cccc(Br)c2)nc2scc(-c3ccccc3)c12	103	·	·	-13
Cc1cc(=O)n2nc(N3CCC(C(=O)Nc4ccc(C)c(Cl)c4)CC3)sc2n1	100	93	87	-30
Cc1c(Cl)cccc1-n1ncc(C(=O)Nc2ccc3c(c2)OCCO3)c1C1CCN(C(=O)OC(C)(C)C)CC1	104	105	96	·
C/C(=C\C(=Nc1ccccc1O)c1ccccn1)c1ccccn1	135	117	85	·
CN(CCNS(=O)(=O)c1ccc(-c2cc(C(F)(F)F)no2)s1)C1CCCCC1	105	97	84	12
COc1ccc(NC(=O)Cn2nnc3sc4c(c3c2=O)CCC(C)C4)c(OC)c1 (stereo not drawn)	105	112	97	-5
CC1CCN(C(=O)CCSc2nc(-c3ccc4c(c3)OCO4)cc(C(F)(F)F)n2)C(C)C1 (stereo not drawn)	98	·	·	-16
Brc1cccc(-c2noc(CSc3ccc(-c4ccc5c(c4)OCO5)nn3)n2)c1	107	·	·	-25
COC(=O)c1cc(C(=O)Nc2cccc(C)c2)c(=O)[nH]c1C	112	·	·	7
CCOc1cc(/C=C2\C(=O)Nc3ccc(Br)cc32)ccc1OCC(=O)O	100	113	93	·
N#CC1=C(N)c2ccccc2CC12CCCCC2	104	109	114	-40
CCCNC(=O)c1ccc(N2C(=O)c3ccccc3C2=O)cc1	101	115	106	-54
CCCc1nc2nc(C)cc(N3CCN(c4cc(Cl)ccc4C)CC3)n2n1	94	·	·	6
O=S(=O)(Nc1nccs1)c1ccc(Nc2nnc(-c3ccc(Cl)cc3)c3ccccc23)cc1	109	·	·	-16
CCOC(=O)c1ccccc1NC(=O)CSc1ccc(-c2sc(C)nc2C)nn1	99	107	89	·

Single records (already shown).
`COc1ccc(/C=N/O)cc1OC1CCCC1` is listed as GIV-Gai inh: 98; Sa growth inh: 96; Sa growth inh second temp: 84; HCMV NEC inh: -15
`O=C(O)c1ccc(S(=O)(=O)Nc2ccc3oc4c(c3c2)CCCC4)cc1` is listed as GIV-Gai inh: 109; Sa growth inh: 96; Sa growth inh second temp: 91; HCMV NEC inh: 1
`Cc1c(Cl)cccc1-n1ncc(C(=O)Nc2ccc3c(c2)OCCO3)c1C1CCN(C(=O)OC(C)(C)C)CC1` is listed as GIV-Gai inh: 104; Sa growth inh: 105; Sa growth inh second temp: 96; HCMV NEC inh: ·

(listing goes on)
SMILES	GIV-Gai inh	Sa growth inh	Sa growth inh second temp	HCMV NEC inh
CCOC(=O)c1ccc(-c2ccc(/C=C3/C(=O)ON=C3C)o2)cc1	101	84	63	-17
CCN1CCN(C(=O)c2cc(Nc3ccccc3)nc3ccccc23)CC1	99	117	104	3
CN(CCc1ccccn1)C(=O)CC1(CC(=O)O)CCCC1	·	139	93	-36
CCCCc1nn2c(=O)cc(COC(=O)c3cccc(NC(=O)COc4ccccc4)c3)nc2s1	95	90	75	·
O=C1C2C3C=CC(C3)C2C(=O)N1CCOCc1ccccc1 (stereo not drawn)	102	107	100	3
c1ccc(-c2cc(NCC3CC3)n3cnnc3n2)cc1	101	143	83	·
N#Cc1c(-c2ccco2)cc(C2CC2)nc1SCC(=O)c1ccccc1	102	·	·	-19
Cc1ccc2[nH]cc(CCN3CC(C(=O)Nc4nnc(CC(C)C)s4)CC3=O)c2c1 (stereo not drawn)	102	·	·	-14
COc1ccc(NC(=O)CN2N=NC3C(=O)N(c4ccc(F)c(Cl)c4)C(=O)C32)c(OC)c1 (stereo not drawn)	104	·	·	0
CCN(CC)C(=O)c1sc(NC(=S)N2CCN(C(=O)c3ccco3)CC2)c(C(=O)OC)c1C	107	108	93	-20
Cn1c(CN(c2ccc(F)cc2)S(C)(=O)=O)nnc1SCc1nnc(-c2ccccc2)o1	106	·	·	-10
COc1cccc(-c2nc(S(=O)(=O)c3ccc(C)cc3)c(N3CCC(C)CC3)o2)c1	98	·	·	-10
CC(C)(C)C(O)Cn1c(=N)n(CCN2CCCCC2)c2ccccc21 (stereo not drawn)	100	96	83	·
COc1cccc(NC(=O)C2CCN(S(=O)(=O)c3c(C)noc3C)CC2)c1	104	116	87	-12
CC(=O)N1CCCC1c1nc2ccccc2[nH]1 (stereo not drawn)	105	·	·	-28
COc1cccc(NC(=S)N2CCCCC2)c1	108	99	99	9
CC[n+]1c(C)sc2sc3ccccc3c21	100	13	29	-27
CC1Cc2ccccc2N1C(=O)CN(C)CC(=O)Nc1ccc(OC(F)(F)F)cc1 (stereo not drawn)	·	147	44	-22
